Ecoli rRNA inh: inhibitors of bacterial rRNA selective over humanized ribosomes; 1.6% of 350,000 active; E. coli WT GFP vs humanized-ribosome RFP mutants, fluorescence, 24 h; stronger effect = lower value; DMSO median 0, no signal -100; AID 720706; GFP signal change (wild-type ribosome), % (no concentration beside the values);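 active means significant combined selectivity score with lowered wild-type GFP, culture density cut under 30%, mutant RFP and density less affected; inactive means any of these conditions unmet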; further: one replicate is shown; some compounds called inactive have numbers as strong as hits
MLL AF4-AF9 inh: blocks AF4 peptide binding to human AF9; P42568; AlphaScreen, biotin-AF4 peptide binding to FLAG-AF9; inhibition, % at 10 µM; 0.47% of 350,000 active; AID 651704;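 active means every replicate reaching a set inhibition limit, whatever the replicate mean, cut at about 25% in these data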;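 further: 0% = plate neutral control median and 100% = total signal loss; the record names both 10 and 1 µM as test concentration; the first replicate is given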
Target sequence (P42568 whole entry, looked up): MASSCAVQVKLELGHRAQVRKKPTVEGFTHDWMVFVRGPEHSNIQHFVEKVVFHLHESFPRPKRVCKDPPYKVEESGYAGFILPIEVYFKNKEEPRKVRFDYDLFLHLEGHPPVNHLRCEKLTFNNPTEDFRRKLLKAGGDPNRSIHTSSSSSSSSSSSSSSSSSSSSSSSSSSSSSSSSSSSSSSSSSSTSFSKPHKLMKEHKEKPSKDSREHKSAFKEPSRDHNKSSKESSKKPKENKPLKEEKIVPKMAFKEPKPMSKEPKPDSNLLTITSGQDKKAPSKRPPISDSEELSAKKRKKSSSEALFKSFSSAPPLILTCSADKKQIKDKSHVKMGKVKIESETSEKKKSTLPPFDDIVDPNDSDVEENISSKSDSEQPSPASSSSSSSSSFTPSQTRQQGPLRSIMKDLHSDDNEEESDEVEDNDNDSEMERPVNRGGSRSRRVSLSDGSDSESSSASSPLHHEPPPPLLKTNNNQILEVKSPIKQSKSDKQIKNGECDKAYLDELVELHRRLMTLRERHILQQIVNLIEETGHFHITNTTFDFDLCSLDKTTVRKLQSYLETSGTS
FGF22 binding: FGF22 (human) thermal shift binding; 1.5% of 340,000 active; calls only at 9.99 µM; recombinant FGF22 thermal shift, SYPRO orange fluorescence; percent of sucrose octasulfate shift, DMSO zero;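 active means melting point raised past a set limit in the mean and every replicate; three in four hits are not shown here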
Target sequence (Q9HCT0 whole entry, looked up): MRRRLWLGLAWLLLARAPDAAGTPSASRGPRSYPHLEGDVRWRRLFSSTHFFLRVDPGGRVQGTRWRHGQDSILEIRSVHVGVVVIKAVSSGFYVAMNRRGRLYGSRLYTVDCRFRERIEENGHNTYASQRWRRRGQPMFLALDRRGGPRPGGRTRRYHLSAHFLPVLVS
Ecoli rRNA inh OD600: also measured in Ecoli rRNA inh; calls as there; OD600 change, %; measured here: OD600 growth;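 optical density of the mix in the first replicate; 0 = DMSO median and -100 = no signal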
Ecoli rRNA inh RFP: recorded beside Ecoli rRNA inh, whose call it bears; RFP signal change, %; measured here: RFP humanized mutant strains;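 first replicate; 0 = DMSO median and -100 = no signal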
Numbers without * were called inactive; i = inactive. The list is partial, so the mix of outcomes need not match the whole.

SMILES | Ecoli rRNA inh | Ecoli rRNA inh OD600 | Ecoli rRNA inh RFP | MLL AF4-AF9 inh | FGF22 binding
O=C(Nc1ccc(Cl)cc1)N[C@@H]1CC[C@H](CCn2cc(Cc3ccccc3)nn2)O[C@@H]1CO | -2 | -25 | 8.6 | 1.0 | i
COC(=O)C[C@H]1CC[C@H](NC(=O)Nc2ccc(C(F)(F)F)cc2)[C@@H](CO)O1 | -11 | -11 | 5.7 | -2.7 | i
CC(=O)c1sc(Nc2ccc3c(c2)OCO3)nc1C | 0 | 11 | -4.0 | 1.6 | i
Cc1cccc(S(=O)(=O)N[C@@H]2CC[C@H](CCn3cc(-c4ccccn4)nn3)O[C@@H]2CO)c1 | -4 | -6 | 1.6 | -0.1 | i
CCc1nc2c(OCC(N)=O)cccn2c1N(C)C(=O)c1ccc(OC)cc1 | 7 | 3 | -3.5 | -1.4 | i
CO[C@@H]1CN(C)C(=O)c2ccc(NC(C)=O)cc2OC[C@H](C)N(CCC(F)(F)F)C[C@@H]1C | 0 | -1 | -0.5 | -1.2 | i
CCC(=O)N1CC2(C1)CN(C(=O)CN1CCOCC1)[C@@H](CO)c1c2c2ccc(OC)cc2n1C | 6 | 6 | -4.1 | -3.1 | i
COc1ccc(S(=O)(=O)N2C[C@@H](O)COC[C@@H]3O[C@@H](CC(=O)NCCCN4CCOCC4)CC[C@H]32)cc1 | 0 | 6 | 0.5 | -2.7 | i
O=C(C1CCC1)N1CCCCN2[C@H](CO)[C@H](c3ccc(C#CC4(O)CCCC4)cc3)[C@@H]2C1 | 1 | -2 | -0.3 | -2.4 | i
COc1ccc(S(=O)(=O)Nc2ccc3c(c2)C(=O)N([C@@H](C)CO)C[C@H](C)[C@@H](CN(C)S(=O)(=O)c2cccs2)OCCCC[C@@H](C)O3)cc1 | 2 | 4 | -3.9 | 1.2 | i
O=C(C[C@@H]1C[C@@H]2c3cc(NC(=O)NC4CCCCC4)ccc3O[C@@H]2[C@H](CO)O1)NCc1cccnc1 | -4 | 0 | 0.2 | -0.1 | i
COc1ccccc1S(=O)(=O)N[C@@H]1CC[C@@H](CC(=O)N2CCN(C)CC2)O[C@H]1CO | 0 | -3 | -3.3 | 0.3 | i
O=C(Nc1ccccc1Cl)c1cc(C2CCCCN2S(=O)(=O)c2ccc(F)cc2F)on1 (centres undefined) | 0 | 1 | 4.4 | -1.1 | i
C[C@@H]1CN([C@H](C)CO)C(=O)c2cc(NC(=O)CCC(F)(F)F)ccc2O[C@H]1CN(C)S(=O)(=O)c1cn(C)cn1 | 4 | 4 | 1.4 | -5.9 | i
C[C@@H]1CN([C@@H](C)CO)S(=O)(=O)c2ccc(/C=C/c3ccccc3)cc2O[C@@H]1CN(C)C(=O)NC1CCCCC1 | 0 | -1 | 0.5 | -0.4 | i
CO[C@@H]1CN(C)C(=O)c2cc(NC(=O)Nc3c(C)noc3C)ccc2OC[C@@H](C)N(CC2CC2)C[C@@H]1C | 5 | 6 | -2.9 | -1.4 | i
COc1ccc2c3c(n(C)c2c1)[C@@H](CO)N(C(C)=O)CC31CCN(S(=O)(=O)c2ccccc2)CC1 | -3 | -25 | 2.8 | 2.0 | i
COc1cccc(NC(=O)C[C@H]2CC[C@@H]3[C@H](COc4ccc(NC(=O)c5ccccc5F)cc4C(=O)N3C)O2)c1 | -2 | 5 | 3.9 | 0.7 | i
CN(Cc1ccccc1)C(=O)[C@@H]1CCCN1C(=O)[C@@H]1CCCN1C(=O)c1ccccc1 | -8 | 0 | -2.1 | 0.0 | i
C[C@H](CO)N1C[C@H](C)[C@H](CN(C)Cc2ccccc2)OCCCC[C@H](C)Oc2ccc(NC(=O)C3CCCCC3)cc2C1=O | -2 | -15 | 19 | 2.1 | i
CO[C@H]1CN(C)C(=O)c2cc(C#N)ccc2OCC[C@H]2CC[C@@H](OC)[C@@H](CN(C)C(=O)[C@@H]1C)O2 | 0 | 1 | -0.9 | 1.2 | i
COc1ccc(CN(C)C[C@H]2Oc3c(NS(=O)(=O)c4ccc(OC)cc4)cccc3C(=O)N([C@H](C)CO)C[C@H]2C)cc1 | -3 | -2 | -1.6 | 0.9 | i
CC=Cc1ccc2n(c1=O)C[C@@H]1[C@@H](CO)[C@H](C(=O)NCCC)[C@H]2N1Cc1ccccc1 (mixture of isomers) | 3 | 1 | -1.0 | -1.0 | i
Cc1ccccc1NC(=O)Cc1nc(COC(=O)CSc2ccc(F)cc2)cs1 | -1 | 5 | 8.7 | -7.4 | i
Cc1noc(C)c1NC(=O)N(C)C[C@H]1Oc2ccc(NC(=O)CCCN(C)C)cc2C(=O)N([C@@H](C)CO)C[C@H]1C | 7 | 14 | 0.6 | -3.2 | i

9 consecutive compounds already listed, quoted:
SMILES | Ecoli rRNA inh | Ecoli rRNA inh OD600 | Ecoli rRNA inh RFP | MLL AF4-AF9 inh | FGF22 binding
COc1ccc2c3c(n(C)c2c1)[C@@H](CO)N(C(C)=O)CC31CCN(S(=O)(=O)c2ccccc2)CC1 | -3 | -25 | 2.8 | 2.0 | i
COc1cccc(NC(=O)C[C@H]2CC[C@@H]3[C@H](COc4ccc(NC(=O)c5ccccc5F)cc4C(=O)N3C)O2)c1 | -2 | 5 | 3.9 | 0.7 | i
CN(Cc1ccccc1)C(=O)[C@@H]1CCCN1C(=O)[C@@H]1CCCN1C(=O)c1ccccc1 | -8 | 0 | -2.1 | 0.0 | i
C[C@H](CO)N1C[C@H](C)[C@H](CN(C)Cc2ccccc2)OCCCC[C@H](C)Oc2ccc(NC(=O)C3CCCCC3)cc2C1=O | -2 | -15 | 19 | 2.1 | i
CO[C@H]1CN(C)C(=O)c2cc(C#N)ccc2OCC[C@H]2CC[C@@H](OC)[C@@H](CN(C)C(=O)[C@@H]1C)O2 | 0 | 1 | -0.9 | 1.2 | i
COc1ccc(CN(C)C[C@H]2Oc3c(NS(=O)(=O)c4ccc(OC)cc4)cccc3C(=O)N([C@H](C)CO)C[C@H]2C)cc1 | -3 | -2 | -1.6 | 0.9 | i
CC=Cc1ccc2n(c1=O)C[C@@H]1[C@@H](CO)[C@H](C(=O)NCCC)[C@H]2N1Cc1ccccc1 (mixture of isomers) | 3 | 1 | -1.0 | -1.0 | i
Cc1ccccc1NC(=O)Cc1nc(COC(=O)CSc2ccc(F)cc2)cs1 | -1 | 5 | 8.7 | -7.4 | i
Cc1noc(C)c1NC(=O)N(C)C[C@H]1Oc2ccc(NC(=O)CCCN(C)C)cc2C(=O)N([C@@H](C)CO)C[C@H]1C | 7 | 14 | 0.6 | -3.2 | i

Other compounds
SMILES | Ecoli rRNA inh | Ecoli rRNA inh OD600 | Ecoli rRNA inh RFP | MLL AF4-AF9 inh | FGF22 binding
C[C@@H]1CN([C@H](C)CO)S(=O)(=O)c2ccc(C#CC3(O)CCCC3)cc2O[C@H]1CN(C)C(=O)Cc1ccccc1 | -3 | -19 | 0.2 | 2.7 | i
C[C@H](CO)N1C[C@H](C)[C@H](CN(C)Cc2ccc(C(=O)O)cc2)Oc2c(NC(=O)Nc3ccccc3)cccc2C1=O | 0 | 0 | -2.5 | -1.1 | i
Cc1noc(C)c1NC(=O)Nc1ccc2c(c1)C(=O)N([C@@H](C)CO)C[C@H](C)[C@H](CN(C)Cc1ccc(C(=O)O)cc1)O2 | 2 | 5 | -2.7 | -2.7 | i
COc1cc(Cl)c(CNC[C@H]2O[C@@H](n3cnc4c(=O)[nH]c(N)nc43)[C@H](O)[C@@H]2O)c(Cl)c1O | 3 | 8 | -5.2 | -1.8 | i
O=C(N/N=C/c1cc(Cl)cc([N+](=O)[O-])c1O)c1cccc(S(=O)(=O)N2CCOCC2)c1 | 7 | 10 | 2.1 | 36* | i
COc1ccccc1-c1ccc([C@@H]2C[C@H]3[C@H](CON3C)CN2CC2CCCCC2)cc1 | 5 | 8 | 2.1 | 1.6 | i
N#Cc1ccc(-c2ccc3c(c2)[C@H]2[C@H](CCN2C(=O)c2ccc4c(c2)OCO4)[C@H](CO)N3)cc1 | -4 | -9 | 3.8 | -1.0 | i
Cc1cc2nc(C(C)(C)C)c(Cc3ccccc3C(F)(F)F)n2c(C)c1Br | -4 | -5 | 22 | 2.1 | i
Cc1ccccc1-c1nc2ccccc2c(=O)o1 | -6 | -8 | -1.6 | -4.3 | i
O=S1(=O)CC(N2CCN(CCO)CC2)CN1Cc1ccc(F)cc1 (centres undefined) | 10 | 4 | -0.3 | -2.0 | i
CC(C)CC#Cc1cnc2c(c1)C(=O)N([C@@H](C)CO)C[C@H](C)[C@@H](CN(C)C(=O)NC1CCCC1)O2 | 9 | 8 | -0.3 | -2.4 | i
C/C=C/c1ccc2c(c1)O[C@H](CN(C)C(=O)c1cnccn1)[C@@H](C)CN([C@H](C)CO)S2(=O)=O | -3 | 5 | -1.6 | -0.4 | i
COc1ccc(S(=O)(=O)Nc2ccc3c(c2)C(=O)N([C@@H](C)CO)C[C@H](C)[C@H](CN(C)Cc2ccc(C(F)(F)F)cc2)OCCCC[C@@H](C)O3)cc1 | -2 | -3 | 0.4 | -1.5 | i
CCOc1ccc(OCC(=O)NCCS(=O)(=O)N2CCN(c3ccccc3)CC2)cc1 | 4 | 8 | 2.2 | -2.3 | i
CCCNC(=O)N1C[C@H](O)COC[C@H]2O[C@@H](CC(=O)NCc3ccncn3)CC[C@@H]21 | 5 | 4 | -3.0 | -3.6 | i
COCC#Cc1cnc2c(c1)C(=O)N([C@@H](C)CO)C[C@@H](C)[C@@H](CN(C)C(=O)c1ccc(F)cc1)O2 | 1 | 7 | 1.3 | -2.1 | i
CC(C)(C)OC(=O)N1CCC(C(=O)Nc2cccc(C(=O)N3CCCCC3)c2)CC1 | 0 | 0 | -1.3 | -4.5 | i
Cc1noc(C)c1S(=O)(=O)N(C)C[C@H]1OCCCC[C@H](C)Oc2ccc(NC(=O)Nc3cccc4ccccc34)cc2C(=O)N([C@@H](C)CO)C[C@@H]1C | 0 | 6 | 2.0 | 0.8 | i
C[C@@H]1CN([C@H](C)CO)C(=O)c2cccc(NS(=O)(=O)c3ccc(F)cc3)c2O[C@@H]1CN(C)Cc1ccc(-c2ccccc2)cc1 | -4 | 6 | 1.1 | 3.3 | i
C[C@H]1CN([C@@H](C)CO)C(=O)c2cc(C#Cc3ccccc3)cnc2O[C@@H]1CN(C)CC1CCOCC1 | 2 | 24 | 1.1 | 6.3 | i
CO[C@@H](CN(C)C(=O)c1ccccc1F)[C@H](C)CN([C@@H](C)CO)S(=O)(=O)c1ccc(F)cc1 | 4 | 14 | 2.7 | -16 | i
COc1c(F)cccc1C1=CC(=O)C[C@H](c2ccc(F)cc2)C1 | -24 | -34 | -8.1 | -0.8 | i
Cc1noc(C)c1S(=O)(=O)N(C)C[C@@H]1Oc2ccc(NS(C)(=O)=O)cc2CC(=O)N([C@@H](C)CO)C[C@@H]1C | 1 | -4 | 0.1 | -0.3 | i
CC(C)NC(=O)N(C)C[C@@H]1Oc2cc(C#C[C@H](C)O)ccc2S(=O)(=O)N([C@H](C)CO)C[C@@H]1C | 1 | 7 | 1.3 | -3.9 | i
C[C@H](CO)N1C[C@H](C)[C@H](CN(C)S(=O)(=O)c2cn(C)cn2)Oc2ccc(NC(=O)Cn3cnnn3)cc2CC1=O | 2 | 6 | -2.4 | -0.1 | i
SMILES | Ecoli rRNA inh | Ecoli rRNA inh OD600 | Ecoli rRNA inh RFP | MLL AF4-AF9 inh | FGF22 binding
COCC#Cc1ccc2c(c1)O[C@H](CN(C)S(=O)(=O)c1cccc(OC)c1)[C@H](C)CN([C@H](C)CO)S2(=O)=O | -6 | -15 | 6.1 | -1.7 | i
C[C@@H]1CN([C@H](C)CO)C(=O)c2cc(NC(=O)C3CCCCC3)ccc2O[C@@H](C)CCCCO[C@@H]1CN(C)Cc1ccc2c(c1)OCO2 | 0 | -16 | 3.4 | -0.2 | i
CO[C@H]1CN(C)C(=O)c2cc(NC(=O)Nc3cccc(F)c3)ccc2OC[C@H](C)N(C)C[C@H]1C | -4 | -5 | 1.3 | 1.6 | i
O=C(C[C@@H]1C[C@@H]2c3cc(NC(=O)Cc4ccncc4)ccc3O[C@@H]2[C@H](CO)O1)NCc1ccc(-c2ccccc2)cc1 | -4 | -9 | 1.2 | -0.7 | i
CCCNC(=O)[C@@H]1[C@@H](CO)[C@@H]2Cn3c(ccc(-c4cccc(F)c4)c3=O)[C@H]1N2C(=O)CC | 0 | 0 | -0.9 | 1.4 | i
Cc1ccc(S(=O)(=O)N(C)C[C@H]2OCCCC[C@@H](C)Oc3ccc(NC(=O)c4ccccc4)cc3C(=O)N([C@@H](C)CO)C[C@H]2C)cc1 | -3 | -3 | 2.3 | 1.6 | i
CS(=O)(=O)Nc1ccc2c(c1)[C@H]1C[C@@H](CC(=O)N3CCc4ccccc4C3)O[C@@H](CO)[C@H]1O2 | 1 | -3 | 0.2 | -0.2 | i
Cc1noc(C)c1NC(=O)N(C)C[C@H]1OCCCC[C@H](C)Oc2ccc(NS(=O)(=O)c3c(C)noc3C)cc2C(=O)N([C@@H](C)CO)C[C@H]1C | 7 | 0 | -4.0 | -2.2 | i
C[C@@H]1CN([C@@H](C)CO)C(=O)c2cccc(NC(=O)C3CCCCC3)c2O[C@H]1CN(C)Cc1ccc(C(F)(F)F)cc1 | 1 | 13 | -4.2 | 4.5 | i
CCC(=O)N1CCCCN2[C@@H](CO)[C@@H](c3ccc(-c4cccc(C(=O)N(C)C)c4)cc3)[C@@H]2C1 | 5 | 5 | 0.2 | -3.3 | i

High-throughput results (PubChem)
